Rce1 inh – yeast Rce1p protease inhibitors, primary screen, biochemical, fluorescence, cell-free homogeneous; yeast membranes, quenched prenylated peptide cleavage fluorescence; AID 2563, 2010; calls only; 290,000 compounds, 0.27% hits;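 active = fall in fluorescence gain of 50% or more versus controls, with final raw signal at or below 3038400; inconclusive = same 50% fall but final raw signal above 3038400; inactive = fall in fluorescence gain under 50%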;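 note: plate controls were neutral control wells for no effect and wells lacking membranes for full effect; tested at 10 µM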
Env fusion inh – inhibitors of HIV-1 Env-driven cell-cell fusion, primary screen, HeLa-JRFL effector, CEM21 target cells, luciferase | 360,000 compounds, 1.1% hits | inhibition, % at 12.3 µM;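 active = mean replicate inhibition score of at least 50 and every replicate individually at or above 50; inconclusive = only one of the two criteria met; inactive = mean below 50 and not all replicates reaching 50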;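 note: 0% = plate neutral controls and 100% = maraviroc near 300 nM; one replicate is shown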
eIF4H inh – human eIF4H binding inhibitors, primary screen, translation initiation inhibitor project, biochemical, uHTS, fluorescence polarization; 290,000 compounds, 0.94% hits; inhibition, % at 35 µM; eIF4H fluorescence polarization binding assay; AID 2012, 2009;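 active = 50% or more with normal probe brightness, or confirmed in later tests; inconclusive = above 50% with abnormal brightness, or retests that disagree; inactive = below 50% or failed in later tests; about a fifth of its hits are not listed in these tables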;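 note: calls also rest on retests at 20 µM and on dose response follow-up; 0% = protein and probe with vehicle and 100% = probe without protein; strong numbers were not always called active; many hits fall short of the cut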
CSC inhib – cancer stem cell viability inhibitors, primary screen, luminescence | cancer stem cell-like cells viability | inhibition, % at 7.5 µM | 300,000 compounds, 1.1% hits;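 active = mean at 75% or more and at least half the replicates too; inconclusive = mean and replicates disagree; tested in HMLE shEcad cells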;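 note: 0% = median of negative and 100% = median of positive control wells; the first replicate is given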
UUG fidelity – modulators of yeast start codon fidelity, primary screen, whole organism, S. cerevisiae, single point, plate reader. AID 602363, 2012. activity score, % at 18.7 µM. 350,000 compounds, 0.13% hits. S. cerevisiae UUG-firefly luciferase reporter, luminescence/redox ratio;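 active = replicate mean at a twofold rise or more, about +100% in these data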;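 note: firefly luciferase made from a UUG start codon reports start codon fidelity; reporter light over untreated wells divided by growth signal over untreated wells; some hits fall short of that in this replicate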
MT1-MMP act inh – blockers of MT1-MMP proenzyme processing, primary screen, HT1080 RFP-PRO-GFP cells, GFP/RFP fluorescence | GFP/RFP ratio change, % at 20 µM | 360,000 compounds, 0.061% hits | Matrix metalloproteinase-14 (Homo sapiens), P50281 | GFP/RFP ratio fluorescence, overnight; percent of plate control window, DMSO zero | AID 651647, 2012;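 active = GFP/RFP ratio change of at least 30% with cell ATP level not reduced by more than half and red fluorescence within 50% of control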; note: strong numbers were not always called active
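Test system: HT1080 cells expressing an RFP-PRO-GFP fluorescent reporter construct / Compound dosing: single-point 20 µM compound, 1% DMSO / Schedule: cells overnight before dosing, compound overnight, 37 °C, 5% CO2 / Evaluation: GFP/RFP fluorescence ratio / Control set: DMSO and RFP-L50D-GFP cell wells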
PABP polyA inh – PABP poly(A) RNA binding inhibitors, primary screen, biochemical, fluorescence polarization, uHTS; inhibition, % at 35 µM; 290,000 compounds, 1% hits;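 active = 50% or more with normal probe brightness, or confirmed in later tests; inconclusive = above 50% with abnormal brightness, or retests that disagree; inactive = below 50% or failed in later tests; about a fifth of its hits are not listed in these tables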;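 note: calls also rest on retests at 20 µM and on dose response follow-up; controls were probe without protein and protein plus probe with vehicle; some compounds called inactive have numbers as strong as hits; many hits fall short of the cut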
Target sequence (P11940 whole entry, looked up): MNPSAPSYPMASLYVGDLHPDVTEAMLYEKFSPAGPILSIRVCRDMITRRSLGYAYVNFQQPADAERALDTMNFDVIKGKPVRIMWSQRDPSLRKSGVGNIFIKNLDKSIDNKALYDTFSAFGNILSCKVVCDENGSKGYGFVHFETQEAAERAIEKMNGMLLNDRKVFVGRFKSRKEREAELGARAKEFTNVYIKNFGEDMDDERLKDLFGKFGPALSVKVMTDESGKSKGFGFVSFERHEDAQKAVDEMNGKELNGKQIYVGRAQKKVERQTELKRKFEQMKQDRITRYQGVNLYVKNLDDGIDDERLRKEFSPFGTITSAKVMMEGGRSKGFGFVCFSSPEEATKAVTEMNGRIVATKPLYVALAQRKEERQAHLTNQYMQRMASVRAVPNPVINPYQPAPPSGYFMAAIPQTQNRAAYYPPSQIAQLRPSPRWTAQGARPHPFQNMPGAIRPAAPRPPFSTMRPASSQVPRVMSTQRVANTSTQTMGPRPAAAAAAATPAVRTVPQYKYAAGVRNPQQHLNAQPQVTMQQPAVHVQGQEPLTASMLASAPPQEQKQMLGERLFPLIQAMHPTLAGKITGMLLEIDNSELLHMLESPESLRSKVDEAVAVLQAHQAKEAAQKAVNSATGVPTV
eIF4H inh retest – further read-out of eIF4H inh, marked with its call; inhibition, %; compound at 20 µM; confirmation average;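 mean of two retest wells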
PABP polyA inh retest – also measured in PABP polyA inh; calls as there; inhibition, %; compound at 20 µM; confirmation repeats;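 mean of two retest wells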
MT1-MMP act inh RFP – recorded beside MT1-MMP act inh, whose call it bears; RFP signal change, %; measured here: RFP expression control read;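 0 = vehicle wells; hits needed this value within 50% of zero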
The depositor's hits bear a star; i = inactive; ? = inconclusive; / = not tested or not shown. No enrichment for hits. About 3% of those tested had a hit in this group.

SMILES	Rce1 inh	Env fusion inh	eIF4H inh	CSC inhib	UUG fidelity	MT1-MMP act inh	MT1-MMP act inh RFP	PABP polyA inh	others
Cc1c(C(=O)N2CCc3ccccc3C2)oc2ccccc12	i	3	-2	2	18	5	4	-1
CN(C1CCCCC1)S(=O)(=O)c1ccc2c(c1)c(=O)c(C(=O)NCCN1CCCC1)cn2C	i	-7	-8	-9	-9	-2	-1	-1
COC(=O)c1ccc(Cn2cc(C(F)(F)F)ccc2=O)cc1	i	1	0	6	/	-3	-1	-6
CC(C)=NOc1nc(N(C)C)nc(N(C)C)n1	i	10	-2	-3	/	-3	-5	5
N=c1sc2ccccc2n1-c1ccccc1	i	/	2	-19	/	-5	-11	2
O=C(COC(=O)/C=C/c1ccccc1)NCCc1ccc(F)cc1	/	-36	/	-4	-15	4	0	/
CC1(C(=O)NS(=O)(=O)c2ccc(Cl)cc2)CCN1C(=O)C1CC1 (configuration not stated)	/	-7	/	/	-7	-2	4	/
CCOC(=O)c1c(C)oc2cc(Sc3ccccc3)c(O)c(O)c12	i	-12	/	3	3	6	-3	/
COc1cccc(/C=N/NC(=O)C[n+]2ccccc2)c1OC	i	-20	-6	-8	-22	0	2	-7
Cc1ccccc1C(=O)N(C)c1ccccc1C(=O)NCc1ccccc1	i	22	4	-7	-10	0	3	3
O=C(O)CS(=O)CC(=O)Nc1cccc(C(F)(F)F)c1 (configuration not stated)	i	-4	0	/	/	-2	4	8
CN(C)c1ccc(NC(=S)N2CCN(c3ncc(C(F)(F)F)cc3Cl)CC2)cc1	i	7	-5	60	/	9	-6	-4
COc1ccc(-c2nnc(SCc3cccc(C)c3)n2N)cc1	i	-69	-2	-11	-7	3	2	1
CCCCC(=O)N(C)c1c(CC)nc2c(OCCC3CCCCC3)cccn12	/	39	/	/	9	-9	-11	/
Nc1cc(SCc2ccc([N+](=O)[O-])cc2)ncn1	/	-8	/	/	-8	0	1	/
CC1=NN(c2ccc(C)c(C)c2)C(=O)C1C(c1cccc(O)c1)C1C(=O)N(c2ccc(C)c(C)c2)N=C1C (configuration not stated)	i	/	-3	28	-17	5	-1	-3
O=C(COC(=O)/C=C/c1ccccc1[N+](=O)[O-])Nc1ccc(OCc2ccccc2)cc1	i	-4	-2	38	/	6	8	?
COc1nc(C)ccc1-c1noc(-c2ccncc2)n1	i	-152	-3	-6	-9	3	1	-6
O=C(CN1CCc2ccccc2C1)Nc1ccccc1N1CCCCCC1	i	/	6	0	66	-6	-3	16
COc1ccc(S(=O)(=O)N2CCCCC2)cc1NC(=O)c1cnc(C)cn1	/	-1	/	/	-3	1	0	/
N#CC(CCc1ccccc1[N+](=O)[O-])(CCc1ccccc1[N+](=O)[O-])C(N)=O	/	37	/	/	-12	0	-5	/
CC1(C(=O)NS(=O)(=O)c2ccccc2Cl)CCN1C(=O)c1ccccc1CCc1ccccc1 (configuration not stated)	/	31	/	/	28	-1	-1	/
O=C(Nc1nc2ccc(S(=O)(=O)N3CCCCC3)cc2s1)c1ccncc1	i	7	-8	7	-22	0	1	1
Cc1cccc(N2CCN(CC(=O)NCc3ccccc3)CC2)c1C	i	7	1	7	2	3	5	-16
O=C(CSc1ccc2c(c1)OCCO2)NCc1ccco1	i	26	2	4	-11	-8	-1	4

Reprinted at random: 6 entries already listed
SMILES	Rce1 inh	Env fusion inh	eIF4H inh	CSC inhib	UUG fidelity	MT1-MMP act inh	MT1-MMP act inh RFP	PABP polyA inh	others
CC1(C(=O)NS(=O)(=O)c2ccc(Cl)cc2)CCN1C(=O)C1CC1 (configuration not stated)	/	-7	/	/	-7	-2	4	/
O=C(CSc1ccc2c(c1)OCCO2)NCc1ccco1	i	26	2	4	-11	-8	-1	4
Cc1cccc(N2CCN(CC(=O)NCc3ccccc3)CC2)c1C	i	7	1	7	2	3	5	-16
CC1=NN(c2ccc(C)c(C)c2)C(=O)C1C(c1cccc(O)c1)C1C(=O)N(c2ccc(C)c(C)c2)N=C1C (configuration not stated)	i	/	-3	28	-17	5	-1	-3
Cc1ccccc1C(=O)N(C)c1ccccc1C(=O)NCc1ccccc1	i	22	4	-7	-10	0	3	3
O=C(CN1CCc2ccccc2C1)Nc1ccccc1N1CCCCCC1	i	/	6	0	66	-6	-3	16

Remaining list, next part:
SMILES	Rce1 inh	Env fusion inh	eIF4H inh	CSC inhib	UUG fidelity	MT1-MMP act inh	MT1-MMP act inh RFP	PABP polyA inh	others
CCc1cccc(NC(=O)C2CCCN(S(=O)(=O)c3ccc4[nH]c(=O)ccc4c3)C2)c1 (configuration not stated)	i	-16	6	-3	-9	-5	-12	10
COc1ccccc1NS(=O)(=O)N(C)C	i	/	1	18	-9	2	4	27
COc1ccc(-n2c(=O)c3ccccc3n(CC(=O)Nc3cccc(OC)c3)c2=O)cc1	i	0	-8	-4	/	2	7	14
O=c1oc(-c2cc3ccccc3o2)nc2sc3c(c12)CCCC3	i	/	-6	31	-9	-4	4	-8
CC(C)[C@@H](NC(=O)C1CCN(C(=O)[C@@H]2CCCN2C(=O)OC(C)(C)C)CC1)C(=O)NCc1ccc(F)cc1	i	/	2	-13	-4	5	1	-4
Cc1cccc(NC(=S)NCc2ccc3c(c2)OCO3)c1C	i	-2	-11	-6	/	0	4	-5
CCOC(=O)c1c(C)[nH]c(C(=O)OCC(=O)N2CCc3ccccc32)c1C	i	/	0	-15	-7	-9	2	9
C=CCC[C@H](Cc1ccc(F)cc1)C(=O)OC[C@H](Cc1c[nH]c2ccccc12)NC(=O)[C@@H](CC=C)CC(=O)N[C@H](CO)Cc1ccccc1	/	-175	/	64	10	0	-13	/
CCOC(=O)C(C)Sc1nc(N)c(NC(=O)c2ccc(OC)c(OC)c2)c(=O)[nH]1 (configuration not stated)	i	46	1	-2	-31	0	-2	-2
CCOc1ccc(-c2cc(C(=O)Nc3ccc(F)cc3)[nH]n2)c(C)c1	/	-51	/	/	-12	-2	0	/
O=C1NC2(CCCCCC2)N=C1c1ccc(F)cc1	i	-65	0	8	-19	-2	1	4
CCS(=O)(=O)CCSc1nc2ccccc2o1	i	-9	4	-18	-9	8	-1	4
Nc1nonc1C(=O)NCCNCc1c(OCc2ccccc2F)ccc2ccccc12	i	103*	12	28	-11	-7	-7	1
COc1cc2c(=O)n(-c3ccc(C)cc3)c(=O)n(CC(=O)c3ccc4c(c3)OCO4)c2cc1OC	i	/	-1	/	15	5	0	-8
COCCn1c(SCC(=O)Nc2nnc(C)s2)nnc1-c1c[nH]c2ccccc12	i	/	-4	13	/	3	6	-12
COc1ccc(C)cc1NC(=O)C1CC(=O)N(Cc2ccco2)C1 (configuration not stated)	i	-7	2	/	-14	-4	-6	-11
O=C(Nc1nc(-c2ccncc2)cs1)c1ccco1	i	-344	84*	3	-28	3	3	48	eIF4H inh retest=99*;PABP polyA inh retest=50
Cc1cccc(NC(=O)CNC(=O)COC(=O)c2ccc(C(C)(C)C)cc2)c1C	/	0	/	/	-15	1	-2	/
CCOc1ccc(C(=O)Nc2cc(C)on2)cc1	i	-88	4	-3	-14	5	2	6
Cc1cc(C(=O)COc2cccnc2[N+](=O)[O-])c(C)n1Cc1cccs1	i	18	106*	16	-9	-13	-20	-9	eIF4H inh retest=95*;PABP polyA inh retest=3
O=C(Oc1ccc2ccccc2c1)c1ccco1	i	12	-2	-1	/	3	8	-3
Cc1cc(Br)ccc1OCC(=O)N1CCCCCC1	i	-190	8	-6	-9	0	-2	-3
O=C(CN1CCCCC1)N/N=C/c1ccccc1OCc1ccccc1	i	11	-2	13	/	0	3	22
CC1CN(C)C(C)C/C1=N\Oc1ccc([N+](=O)[O-])cc1 (configuration not stated)	i	-19	-2	-4	-18	-6	-4	4
CC(C)c1ccc(NC(=O)C2CCN(C(=O)[C@@H]3Cc4ccccc4CN3)CC2)cc1	i	4	3	-2	2	6	0	3
(further entries)
SMILES	Rce1 inh	Env fusion inh	eIF4H inh	CSC inhib	UUG fidelity	MT1-MMP act inh	MT1-MMP act inh RFP	PABP polyA inh	others
COc1ccc(C(=O)Nc2nnc(SCC(=O)NCC3CCCO3)s2)cc1OC (configuration not stated)	i	/	-2	-24	-1	1	-2	9
C=CCc1ccccc1Oc1cc(F)nc(N)n1	i	1	-1	-5	-9	-2	1	7
O=C(O)CCN1CCc2ccccc2C1c1ccncc1 (configuration not stated)	i	7	-4	0	-13	3	0	-13
Cc1ccc(CNC(=S)NCc2ccncc2)cc1	i	20	1	2	-24	4	-8	3
COc1ccc(OC)c(-c2cc(C(=O)N3CCCc4ccccc43)no2)c1	i	15	-8	9	-8	-5	-5	-5
COC(=O)Cc1cc(=O)[nH]c(/N=C(\N)Nc2cccc(C)c2)n1	i	8	-12	/	/	0	2	6
CCc1cc(C)c(O)c(CC)n1	i	/	-2	2	11	2	3	-2
COc1cc(C#N)c(NS(=O)(=O)c2ccc3[nH]c(=O)sc3c2)cc1OC	i	-3	-2	-7	-16	0	5	4
CC(C)c1ccc(NC2CCCN(C(=O)c3ccoc3)C2)cc1 (configuration not stated)	i	-5	-8	25	-20	-1	-6	-9
COc1ccc(CN2CCN(Cc3cc(=O)oc4cc(C)ccc34)CC2)c(OC)c1OC	i	18	4	-3	-16	3	-1	6
CCN(CC(=O)NCc1ccc(F)cc1)C(=O)C1CCN(S(=O)(=O)c2ccc(C(C)C)cc2)CC1	/	5	/	/	-14	2	-9	/
COc1ccc(CN(C)C(=O)c2cccc(NC(=O)CC3SC(N4CCCCC4)=NC3=O)c2)c(OC)c1 (configuration not stated)	/	23	/	/	-9	11	-29	/
COC(=O)c1[nH]c2cc(C)ccc2c1NC(=O)CN1CCN(c2ccccc2OC)CC1	i	/	8	6	-6	5	-6	-1
O=C(NC(Nc1nc2ccccc2s1)(C(F)(F)F)C(F)(F)F)c1ccccc1	i	-22	-10	-2	-3	-6	-4	-13
COc1ccccc1NS(=O)(=O)c1cc(NC(=O)CCNC(C)=O)ccc1C	i	-9	1	-14	-10	0	-5	-2
Cc1onc(-c2ccccc2)c1CNS(=O)(=O)c1cccc(Br)c1	i	41	4	-1	/	0	-2	6
Cc1cc(Nc2nc3ccccc3[nH]c2=O)n(-c2ccccc2)n1	/	-478	7	9	-12	-17	-15	3
O=C(Nc1ccccc1)C12CC3CC(C1)CC(n1cnc([N+](=O)[O-])n1)(C3)C2	i	-37	2	-2	-13	0	2	4
NC(=O)c1ccsc1NC(=O)COC(=O)COc1ccccc1F	i	-79	-3	15	/	1	3	-2
CC(C)C(=O)c1cn(CC(=O)N2CCCc3ccccc32)c2ccccc12	i	-52	4	0	/	-2	-2	-3
Cc1ccc(P(=O)(CSC(=N)N)c2ccc(C)cc2)cc1	i	-30	3	18	1	6	6	7
CCN(CC)c1ccc(C2C3CCCCC3(O)CCN2CC(=O)N2CCCCC2)cc1 (configuration not stated)	i	/	-5	-11	-13	-7	-5	-2
CCOC(=O)C1=C(O)/C(=C/c2ccc(OCC(=O)O)c(OCC)c2)SC1=Nc1ccc(OC)cc1	i	13	1	-7	/	2	1	-1
CCOc1ncccc1-c1nc(-c2cccs2)no1	i	-11	-6	-2	-7	-2	0	-7

From PubChem
